# Yeast UUG start: modulators of start codon recognition fidelity in yeast | S. cerevisiae UUG-firefly luciferase reporter, luminescence/redox ratio | 350,000 tested, 0.13% active | activity score, % at 18.7 µM;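 active = replicate mean at a twofold rise or more, about +100% in these data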;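 note: firefly luciferase made from a UUG start codon reports start codon fidelity; reporter light over untreated wells divided by growth signal over untreated wells; some hits fall short of that in this replicate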
# * = called active by the depositor. A portion of the library; count on the stated rates, not on these rows.
SMILES,Yeast UUG start
CC=Cc1ccc2n(c1=O)C[C@H]1[C@H](CO)[C@@H](C(=O)NCC)N(C(=O)C3CCOCC3)[C@@H]21 (mixture of isomers),-1.2
COc1ccc(S(=O)(=O)N2C[C@H](O)COC[C@H]3O[C@@H](CC(=O)NCCCN4CCOCC4)CC[C@@H]32)cc1,-9.7
C[C@@H]1CN([C@@H](C)CO)C(=O)Cc2cc(NC(=O)c3ccncc3)ccc2O[C@@H]1CN(C)S(=O)(=O)c1ccc(Cl)cc1,-7.8
C[C@@H]1CN([C@H](C)CO)C(=O)c2cccc(NC(=O)c3ccc(-c4nccs4)cc3)c2O[C@H]1CN(C)C(=O)NC1CCCCC1,10.4
C[C@@H]1CN([C@@H](C)CO)C(=O)Cc2cc(NC(=O)c3ccncc3)ccc2O[C@H]1CN(C)Cc1ccc(Oc2ccccc2)cc1,5.1
CN(C[C@@H]1[C@@H](c2ccccc2)[C@@H](CO)N1Cc1ccccn1)S(C)(=O)=O,2.4
COc1ccc(NC(=O)Nc2ccc3c(c2)C(=O)N([C@@H](C)CO)C[C@H](C)[C@H](CN(C)Cc2ccncc2)O3)cc1,-6.7
CO[C@H]1CN(C)C(=O)c2cc(NC(=O)C3CC3)ccc2OC[C@H](C)N(C(=O)CN(C)C)C[C@@H]1C,-17.0
CC(=O)N1[C@H](CN(C)C(=O)C2CCC2)[C@@H](c2ccccc2)[C@@H]1CO,-10.3
CCC(=O)N1CCCCN2[C@H](C1)[C@H](c1ccc(-c3cccc(C(=O)N(C)C)c3)cc1)[C@@H]2CO,0.0
Cc1noc(C)c1S(=O)(=O)Nc1cccc2c1O[C@@H](CN(C)S(=O)(=O)c1ccc(Cl)cc1)[C@@H](C)CN([C@@H](C)CO)C2=O,-1.3
Cc1cccc(S(=O)(=O)N2C[C@@H](O)COC[C@H]3O[C@H](CC(=O)NCc4ccc5c(c4)OCO5)CC[C@@H]32)c1,9.9
COc1ccc(S(=O)(=O)N(C)C[C@@H]2Oc3ccc(NC(=O)CCCN(C)C)cc3C(=O)N([C@@H](C)CO)C[C@@H]2C)cc1,1.5
O=C(C[C@@H]1CC[C@H]2[C@@H](COC[C@@H](O)CN2C(=O)c2ccccc2F)O1)NCc1ccc(Cl)cc1,4.5
C[C@H]1CN([C@@H](C)CO)C(=O)Cc2cc(NC(=O)c3ccncc3)ccc2O[C@@H]1CN(C)CC1CCCCC1,-7.5
CC(C)NC(=O)Nc1ccc2c(c1)CC(=O)N([C@@H](C)CO)C[C@H](C)[C@H](CN(C)C(=O)NC(C)C)O2,-10.4
O=C(CN1CCOCC1)N1CC[C@H]2[C@H](CO)Nc3ccc(-c4ccc(F)cc4)cc3[C@H]21,-1.8
C/C=C/c1ccc([C@H]2[C@@H](CO)N3CCCCN(S(=O)(=O)c4ccc(F)cc4)C[C@H]23)cc1,0.1
CCCC(=O)Nc1ccc2c(c1)OC[C@@H](C)N(Cc1cccc(F)c1)C[C@H](C)[C@@H](OC)CN(C)C2=O,5.8
C/C=C/c1ccc([C@@H]2[C@H](CO)N3CCCCN(C(=O)Nc4ccc(OC)cc4)C[C@@H]23)cc1,22.2
C[C@H](CO)N1C[C@H](C)[C@H](CN(C)S(=O)(=O)c2ccc(Oc3ccccc3)cc2)OCc2cnnn2CCCC1=O,10.6
C[C@@H]1CN([C@H](C)CO)C(=O)c2cc(NC(=O)CCC(F)(F)F)ccc2O[C@@H]1CN(C)S(=O)(=O)c1cn(C)cn1,14.0
C[C@H](CO)N1C[C@H](C)[C@@H](CN(C)Cc2ccc(C(=O)O)cc2)Oc2ccc(NC(=O)Nc3ccc(C(F)(F)F)cc3)cc2C1=O,6.0
C[C@@H]1CN([C@H](C)CO)C(=O)c2cc(NS(C)(=O)=O)ccc2O[C@H]1CN(C)C(=O)Nc1ccccc1,-12.3
Cc1ccc(S(=O)(=O)Nc2ccc3c(c2)C(=O)N([C@@H](C)CO)C[C@@H](C)[C@H](CN(C)Cc2ccc4c(c2)OCO4)O3)cc1,2.6
Cc1ccc(S(=O)(=O)N(C)C[C@H]2Oc3ccc(NC(=O)NC4CCCCC4)cc3C(=O)N([C@@H](C)CO)C[C@@H]2C)cc1,-6.3
CC(=O)N1[C@H](CO)[C@H](c2ccccc2)[C@H]1CN(C(=O)c1cccc(F)c1)C(C)C,24.9
CCCNC(=O)Nc1ccc2c(c1)OC[C@@H](C)N(Cc1ccncc1)C[C@H](C)[C@@H](OC)CN(C)C2=O,0.8
C[C@H](CO)N1C[C@H](C)[C@H](CN(C)Cc2ccc3c(c2)OCO3)Oc2ccc(NC(=O)NC3CCCCC3)cc2CC1=O,-9.1
C[C@@H]1CN([C@@H](C)CO)C(=O)Cc2cc(NS(=O)(=O)c3ccc(F)cc3)ccc2O[C@@H]1CN(C)CC1CCCCC1,10.7
CNC[C@H]1Oc2ccc(NS(=O)(=O)c3ccc(C)cc3)cc2CC(=O)N([C@@H](C)CO)C[C@@H]1C,-11.5
COc1ccc(S(=O)(=O)N(C)C[C@@H]2Oc3ccc(NC(=O)NC4CCCCC4)cc3C(=O)N([C@H](C)CO)C[C@H]2C)cc1,8.6
COc1ccc(C#Cc2ccc([C@H]3[C@@H](CO)N4CCCCN(C(=O)c5ccncc5)C[C@H]34)cc2)cc1,10.3
CCCN(C)C[C@@H]1OCc2cnnn2CCCC(=O)N([C@H](C)CO)C[C@@H]1C,-12.9
CC1C=NC(S(=O)(=O)N2CC[C@@H]3[C@H](CO)N(C)c4ccc(-c5cccc(F)c5)cc4[C@@H]32)=N1 (stereo partly specified),-3.4
O=C(NCCc1ccccc1)[C@@H]1N[C@@H]2c3ccc(-c4ccccc4)c(=O)n3C[C@@H]2[C@H]1CO,0.3
CC1C=NC(S(=O)(=O)N2CC[C@@H]3[C@H](CO)N(C)c4ccc(C5=CCCCC5)cc4[C@@H]32)=N1 (stereo partly specified),21.2
COc1cccc(-c2ccc3c(c2)[C@@H]2[C@@H](CCN2S(=O)(=O)c2ccccc2F)[C@H](CO)N3C)c1,-16.2
CN(C)C(=O)[C@H]1[C@H](CO)[C@H]2Cn3c(ccc(-c4ccncc4)c3=O)[C@@H]1N2CC1CCCC1,-9.7
COc1ccc(NC(=O)Nc2cccc3c2O[C@H](CN(C)C(=O)Nc2ccc(F)cc2)[C@H](C)CN([C@H](C)CO)C3=O)cc1,0.8

# Another view of 6 compounds above.
smiles	Yeast UUG start
COc1ccc(S(=O)(=O)N(C)C[C@@H]2Oc3ccc(NC(=O)NC4CCCCC4)cc3C(=O)N([C@H](C)CO)C[C@H]2C)cc1	8.6
COc1ccc(C#Cc2ccc([C@H]3[C@@H](CO)N4CCCCN(C(=O)c5ccncc5)C[C@H]34)cc2)cc1	10.3
CCCN(C)C[C@@H]1OCc2cnnn2CCCC(=O)N([C@H](C)CO)C[C@@H]1C	-12.9
CC1C=NC(S(=O)(=O)N2CC[C@@H]3[C@H](CO)N(C)c4ccc(-c5cccc(F)c5)cc4[C@@H]32)=N1 (stereo partly specified)	-3.4
O=C(NCCc1ccccc1)[C@@H]1N[C@@H]2c3ccc(-c4ccccc4)c(=O)n3C[C@@H]2[C@H]1CO	0.3
CC1C=NC(S(=O)(=O)N2CC[C@@H]3[C@H](CO)N(C)c4ccc(C5=CCCCC5)cc4[C@@H]32)=N1 (stereo partly specified)	21.2

# Further compounds follow.
SMILES,Yeast UUG start
Cc1cccc(-c2ccc([C@@H]3[C@@H](CO)N4CCCCN(S(=O)(=O)c5ccccc5C)C[C@@H]34)cc2)c1,1.6
CCC(=O)Nc1ccc2c(c1)C(=O)N(C)C[C@H](OC)[C@H](C)CN(C(=O)C1CCC1)[C@@H](C)CO2,-5.6
O=C(C1CCCC1)N1CCCCN2[C@H](CO)[C@H](c3ccc(-c4cccc(F)c4)cc3)[C@H]2C1,6.1
C[C@@H]1CN([C@H](C)CO)C(=O)c2cc(NC(=O)Nc3ccc(F)cc3)ccc2O[C@@H]1CN(C)Cc1ccc(C(=O)O)cc1,6.9
Cc1ccccc1S(=O)(=O)N1CCCCN2[C@@H](CO)[C@@H](c3ccc(-c4cncnc4)cc3)[C@@H]2C1,3.8
CN1c2ccc(C3=CCCCC3)cc2[C@@H]2[C@@H](CCN2C(=O)C2CCOCC2)[C@H]1CO,6.7
CC(C)NC(=O)N1C[C@H]2[C@@H](c3ccccc31)[C@H](CO)N2C(=O)Nc1ccccc1,9.7
CCCNC(=O)C[C@H]1CC[C@@H]2[C@H](COC[C@H](O)CN2C(=O)c2ccccn2)O1,2.1
CN1c2ccc(-c3ccccc3)cc2[C@@H]2[C@@H](CCN2C(=O)Cc2cccnc2)[C@@H]1CO,5.0
CCC(=O)N(C)C[C@@H]1[C@@H](c2ccc(-c3cccnc3)cc2)[C@H](CO)N1C(C)=O,0.9
C[C@@H]1CN([C@H](C)CO)C(=O)c2cc(NC(=O)Nc3ccc(C(F)(F)F)cc3)ccc2O[C@@H]1CN(C)Cc1ccc(Oc2ccccc2)cc1,-24.5
C[C@@H]1CN([C@H](C)CO)C(=O)c2cc(NS(C)(=O)=O)ccc2O[C@H]1CN(C)C(=O)Nc1ccc(F)cc1,6.6
O=C(Cc1ccccc1)N1CC[C@@H]2[C@@H](CO)Nc3ccc(-c4ccc(F)cc4)cc3[C@@H]21,-8.2
Cc1ccc(S(=O)(=O)N2C[C@H](O)COC[C@H]3O[C@@H](CC(=O)NCCN4CCCCC4)CC[C@@H]32)cc1,-11.5
OC[C@@H]1[C@H](c2ccc(C#CC3(O)CCCC3)cc2)[C@@H]2CN(Cc3cccnc3)CCCCN12,-1.3
C[C@@H](NC(=O)[C@@H]1[C@@H](CO)[C@@H]2Cn3c(cccc3=O)[C@H]1N2C(=O)C1CCCC1)c1ccccc1,-10.0
CO[C@@H]1CN(C)C(=O)c2cc(NS(=O)(=O)c3cn(C)cn3)ccc2OC[C@H](C)N(Cc2cccc(F)c2)C[C@@H]1C,-8.0
COCC#Cc1ccc([C@H]2[C@@H](CO)N3CCCCN(S(=O)(=O)c4ccccc4F)C[C@H]23)cc1,5.9
COc1ccccc1NC(=O)N1CCCCN2[C@@H](CO)[C@@H](c3ccc(-c4ccccc4)cc3)[C@@H]2C1,-0.2
CC(C)NC(=O)Nc1ccc2c(c1)C(=O)N([C@H](C)CO)C[C@@H](C)[C@H](CN(C)Cc1ccc(C(F)(F)F)cc1)O2,17.7
O=S(=O)(c1cccs1)N1CCCCN2[C@H](C1)[C@H](c1ccc(/C=C/c3ccccc3)cc1)[C@@H]2CO,-7.6
COc1ccc(C#Cc2ccc([C@H]3[C@@H](CO)N4CCCCN(S(=O)(=O)c5ccccc5)C[C@H]34)cc2)cc1,-4.4
C[C@H]1CN([C@@H](C)CO)C(=O)c2cc(NC(=O)Nc3cccc4ccccc34)ccc2O[C@H]1CN(C)Cc1ccc(C(=O)O)cc1,11.8
CO[C@@H]1CN(C)C(=O)c2cc(NC(=O)CC(F)(F)F)ccc2OC[C@@H](C)N(C(=O)C2CC2)C[C@H]1C,-4.8
O=C(c1ccc2c(c1)OCO2)N1CCCCN2[C@H](CO)[C@@H](c3ccc(-c4ccccc4)cc3)[C@H]2C1,11.7
C[C@H]1CN([C@@H](C)CO)C(=O)c2cccc(NS(=O)(=O)c3ccc(F)cc3)c2O[C@H]1CN(C)CC1CCCCC1,-4.6
COc1ccccc1CN1[C@@H]2CN(C(=O)C3CCOCC3)c3ccccc3[C@@H]2[C@@H]1CO,-3.5
O=C(C[C@H]1C[C@@H]2c3cc(NC(=O)Nc4ccccc4)ccc3O[C@@H]2[C@@H](CO)O1)NCC(F)(F)F,6.6
Cc1noc(C)c1NC(=O)Nc1cccc2c1O[C@@H](CN(C)S(=O)(=O)c1cn(C)cn1)[C@@H](C)CN([C@@H](C)CO)C2=O,0.1
CO[C@H]1CN(C)C(=O)c2cc(NC(=O)C3CC3)ccc2OC[C@H](C)N(Cc2ccncc2)C[C@H]1C,-10.2
CO[C@H]1CN(C)C(=O)c2cc(NC(=O)Nc3ccccc3F)ccc2OC[C@@H](C)N(CCC(F)(F)F)C[C@@H]1C,-5.4
COc1ccccc1-c1ccc2c(c1)[C@H]1[C@H](CCN1S(=O)(=O)c1cn(C)cn1)[C@H](CO)N2,0.0
C[C@@H]1CN([C@H](C)CO)C(=O)c2cc(NC(=O)Nc3ccccc3)ccc2O[C@H]1CN(C)Cc1ccc(C(=O)O)cc1,5.4
COc1ccc(S(=O)(=O)N(C)C[C@@H]2Oc3ccc(NC(=O)CCC(F)(F)F)cc3CC(=O)N([C@H](C)CO)C[C@@H]2C)cc1,7.2
CCN(C[C@@H]1[C@@H](c2ccccc2)[C@H](CO)N1C(C)=O)C(=O)c1ccccn1,-3.3
CN(C)CC#Cc1ccc([C@H]2[C@H](CO)N3CCCCN(CC4CCOCC4)C[C@@H]23)cc1,9.8
CCC(=O)N1[C@H](CO)[C@@H](c2ccc(-c3cccnc3)cc2)[C@@H]1CN(C)C(C)=O,-4.8
C[C@H]1CN([C@@H](C)CO)C(=O)c2cccc(NC(=O)c3ccncc3)c2O[C@H]1CN(C)C(=O)Nc1ccc2c(c1)OCO2,-14.2
C[C@H]1CN([C@@H](C)CO)C(=O)c2cccc(NC(=O)Nc3ccc(C(F)(F)F)cc3)c2O[C@@H]1CN(C)S(C)(=O)=O,13.4
O=C(C[C@@H]1CC[C@@H]2[C@H](COC[C@H](O)CN2Cc2cccc(C(F)(F)F)c2)O1)NCc1ccncc1,-8.2

# Random excerpt: 3 compounds from above.
SMILES,Yeast UUG start
Cc1noc(C)c1NC(=O)Nc1cccc2c1O[C@@H](CN(C)S(=O)(=O)c1cn(C)cn1)[C@@H](C)CN([C@@H](C)CO)C2=O,0.1
C[C@@H]1CN([C@H](C)CO)C(=O)c2cc(NS(C)(=O)=O)ccc2O[C@H]1CN(C)C(=O)Nc1ccc(F)cc1,6.6
Cc1ccccc1S(=O)(=O)N1CCCCN2[C@@H](CO)[C@@H](c3ccc(-c4cncnc4)cc3)[C@@H]2C1,3.8

# Next part:
SMILES,Yeast UUG start
C[C@H]1CN([C@@H](C)CO)C(=O)c2cccc(NC(=O)NC3CCCCC3)c2O[C@@H]1CN(C)S(=O)(=O)c1cccs1,-13.1
CNC[C@H]1Oc2c(NS(=O)(=O)c3cccs3)cccc2C(=O)N([C@@H](C)CO)C[C@@H]1C,-7.0
Cc1c(Cl)cccc1NC(=O)COC(=O)C12CC3CC(CC(O)(C3)C1)C2,-16.2
O=C(CN1CCOCC1)N1CC[C@@H]2[C@H]1c1cc(Br)ccc1N[C@@H]2CO,0.2

# Screening results as filed in PubChem.
